gsp antag: antagonists of gsp mutant (McCune-Albright syndrome) | gsp-mutant cells, cAMP HTRF, 30 min; control for the full effect not named in the record | Potency, µM (titrated, usually from 76.9 µM), for the others: at the top dose activity change, negative = inhibition, usual class: inhibitors | 340,000 compounds, 0.4% hits | AID 624288; active = falling curve of any shape with a large fitted effect; inconclusive = falling curve, mostly with a smaller effect; inactive = flat or rising curve; cell line not stated here;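 note: intracellular cAMP measured with PDE inhibitor Ro 20-1724 present during compound exposure; potency is the fitted concentration of half-maximal effect; % is set by controls: 0 for no effect and ±100 for the full control effect; nearly all actives have a fitted effect of over 65% in size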
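HTRF cAMP measurement after 30 min RT detection following 30 min, 37C compound treatment alongside […] (added as 300 uM solution) in G418-selected cells seeded at 2000/well and grown 16–24 h.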
Menin MLL FP FL: menin-MLL binding inhibition, fluorescein peptide. Fluorescence polarization, fluorescein-MLL peptide displacement from menin. FP activity change, % at 61.4 µM. 290,000 tested, under 10 active; inconclusive = falling polarisation curve, or a change in total fluorescence; inactive = total fluorescence flat and polarisation flat or rising; no compound was filed as active; the % refers to the polarisation; negative = inhibition;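 note: % of control where 0% means no effect; inhibitors lower the polarisation; unlabelled MLL peptide was the positive control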
ClpP mod: qHTS Assay for Activators of ClpP; ATP-dependent Clp protease proteolytic subunit (Bacillus subtilis (strain 168)), P80244; purified B. subtilis ClpP, FRET peptide cleavage, 20 min; Potency, µM (top dose mostly 57.5 µM), without a hit: at the top dose activity change, negative = active; 340,000 compounds, 1.9% hits; AID 651965, 2013; active = well fitted falling curve with a large enough effect; inconclusive = small, poorly fitted or top-dose-only effect; inactive = no such curve, though single readings can be large or run the other way; note: potency is the fitted concentration of half-maximal effect; the source files actives as falling curves though it sought activators and does not explain the sign; nearly all actives have a fitted effect of over 65% in size; many hits overshoot -100%
Target sequence (P80244 whole entry, looked up): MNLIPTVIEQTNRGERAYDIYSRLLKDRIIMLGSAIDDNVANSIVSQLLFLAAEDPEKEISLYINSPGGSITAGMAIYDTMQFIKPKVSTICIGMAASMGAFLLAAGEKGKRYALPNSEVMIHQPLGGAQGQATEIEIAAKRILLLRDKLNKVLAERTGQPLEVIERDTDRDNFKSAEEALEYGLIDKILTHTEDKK
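FRET quenching reversal measured ClpP activation: 10 microg/mL B. subtilis ClpP at pH 8 with the FRET-FV decapeptide, read at 430 nm after 320 nm excitation. The 20-min minus 0-min signal was scaled between DMSO/no-enzyme wells and ADEP (5.8 microM final).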
TRPV1 potentiator: human TRPV1 potentiation; AID 540277; 320,000 compounds, 0.02% hits; potentiation, % at 8.33 µM; TRPV1-expressing cells, Fluo-8 calcium influx, capsaicin EC20 potentiation; host cell line not named in the record; control for the full effect not named in the record; active means potentiation above 80%; inconclusive means 30% to 80%; inactive means below 30%; note: 0% is about no effect
Target sequence (Q8NER1 whole entry, looked up): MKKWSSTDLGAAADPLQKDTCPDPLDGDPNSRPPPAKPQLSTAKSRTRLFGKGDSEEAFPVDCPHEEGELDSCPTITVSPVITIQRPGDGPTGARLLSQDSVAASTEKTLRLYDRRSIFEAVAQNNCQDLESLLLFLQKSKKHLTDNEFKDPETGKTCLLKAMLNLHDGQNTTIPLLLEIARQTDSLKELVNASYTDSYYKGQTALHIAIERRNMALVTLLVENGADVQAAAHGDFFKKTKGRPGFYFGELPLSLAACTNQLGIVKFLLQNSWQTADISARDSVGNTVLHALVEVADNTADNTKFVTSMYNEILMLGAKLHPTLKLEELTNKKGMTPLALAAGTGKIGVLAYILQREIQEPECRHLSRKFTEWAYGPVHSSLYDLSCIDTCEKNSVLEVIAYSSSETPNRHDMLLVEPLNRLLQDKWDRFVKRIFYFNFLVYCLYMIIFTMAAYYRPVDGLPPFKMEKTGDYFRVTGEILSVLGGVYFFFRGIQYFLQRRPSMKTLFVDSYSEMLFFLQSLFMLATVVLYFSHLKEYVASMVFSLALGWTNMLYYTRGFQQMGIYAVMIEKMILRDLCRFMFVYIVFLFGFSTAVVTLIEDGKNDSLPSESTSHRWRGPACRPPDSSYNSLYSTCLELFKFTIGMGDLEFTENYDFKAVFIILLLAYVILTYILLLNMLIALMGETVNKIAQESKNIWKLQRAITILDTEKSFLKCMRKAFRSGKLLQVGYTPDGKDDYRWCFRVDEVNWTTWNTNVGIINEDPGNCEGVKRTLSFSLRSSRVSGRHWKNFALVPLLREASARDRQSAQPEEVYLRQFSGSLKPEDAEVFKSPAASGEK
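TRPV1-expressing cells were cultured overnight at 35.5C and loaded with Fluo-8 calcium dye for 40 to 90 min at room temperature. After a 10 s baseline, compound was added and calcium influx was read kinetically for 3 min (ex 480/em 520 nm).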
gsp ag: gsp mutant agonism; gsp mutant cells, cAMP HTRF, 30 min; control for the full effect not named in the record; 340,000 compounds, 0.13% hits; Potency, µM (series often up to 76.9 µM), for inactives: top-dose activation (cAMP increase), most hits filed as activators; active = well fitted activation curve with a large enough effect; inconclusive = small, poorly fitted or top-dose-only effect, or another doubt; inactive = no such curve, though single readings can be large or run the other way; cell line not stated here;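 note: phosphodiesterase inhibitor Ro 20-1724 added with compounds to block cAMP breakdown; potency is the fitted concentration of half-maximal effect; nearly all actives have a fitted effect of over 60% in size; about a fifth of the inactives were tested at one dose only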
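Cells stably selected in G418 were plated at 2000/well, grown 16-24 hr, then given compounds in DMSO with the PDE inhibitor […] (300 uM solution added) for 30 min at 37C; cAMP was read by HTRF.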
TRPML1 blocker: blocks the human TRPML1 channel | Q9GZU1 | TRPML1-inducible cells, Ca2+ dye fluorescence, FDSS; active compounds read low; inhibition of EC80 agonist-evoked calcium signal | activity change, negative = inhibition, % (no concentration beside the values) | 390,000 compounds, 0.02% hits | AID 624415; in the data active means activity change below about -50%; inconclusive means about -30% to -50%; inactive means above about -30%;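 note: stimulus is agonist 54-4 at its EC80 concentration; % is set by controls: 0 for no effect and ±100 for the full control effect; compound concentration not given in the record; the text of the record puts the active cut at -80%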
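TRPML1-DL cells, Tet-induced overnight (~16 h, 37 °C) at 1,500 cells/well, were loaded with Ca8 no-wash dye plus quencher for 45-90 min at room temperature. Compounds were pinned during FDSS kinetic reading; agonist 54-4 at EC80 (4 uM final) then added.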
Sfp inh: Sfp phosphopantetheinyl transferase inhibition. Q9F4F7. Biochemical Sfp PPTase activity, qHTS. Potency, µM, for inactives: max response, negative = inhibition, usual class: inhibitors. 310,000 compounds, 3.5% hits. AID 1490; active = well fitted inhibition curve with a large enough effect; inconclusive = small, poorly fitted or top-dose-only effect, or another doubt; inactive = no such curve, though single readings can be large or run the other way;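 note: the enzyme is Sfp with the accession as filed and its product quenches rhodamine fluorescence; potency is the fitted concentration of half-maximal effect; 0% = enzyme reaction without inhibitor and -100% = no enzyme wells; top concentration of the series not given in the record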
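Compounds were incubated with enzyme (final 15 nM) for 15 min at room temperature before substrate addition started the reaction. Fluorescence at 525 nm excitation, 598 nm emission was recorded immediately and after 30 minutes.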
* marks the source's active call; other numbers are inactive results; ? = inconclusive; / = no result given; & = joins results of further samples; [ ] = remark or other dose. Rows were taken by chance; overall some 4.9% were active at least once.

Sample of the layout:
smiles,gsp antag,Menin MLL FP FL,ClpP mod,TRPV1 potentiator,gsp ag,TRPML1 blocker,Sfp inh
C=CC[C@@H](CC(=O)N(CCO)Cc1ccccc1)C(=O)N[C@@H](COC(=O)[C@@H](CC=C)Cc1ccc(F)cc1)Cc1c[nH]c2ccccc12,-19%,/,1.6%,/,-16%,6,/
CCC[C@H]1CN(c2ccc(OC)cc2)C(=O)[C@@H]1CC(=O)Nc1ccccc1,/,/,0.8%,/,-19%,12,/
COc1ccc(N(CC(=O)N/N=C/c2ccc(F)cc2)S(=O)(=O)c2ccccc2)cc1,-5%,4.6,1.0%,3,1%,3,6%

The listing, from the first entry:
smiles,gsp antag,Menin MLL FP FL,ClpP mod,TRPV1 potentiator,gsp ag,TRPML1 blocker,Sfp inh
C=CC[C@@H](CC(=O)N(CCO)Cc1ccccc1)C(=O)N[C@@H](COC(=O)[C@@H](CC=C)Cc1ccc(F)cc1)Cc1c[nH]c2ccccc12,-19%,/,1.6%,/,-16%,6,/
CCC[C@H]1CN(c2ccc(OC)cc2)C(=O)[C@@H]1CC(=O)Nc1ccccc1,/,/,0.8%,/,-19%,12,/
COc1ccc(N(CC(=O)N/N=C/c2ccc(F)cc2)S(=O)(=O)c2ccccc2)cc1,-5%,4.6,1.0%,3,1%,3,6%
COc1cc2c(cc1OC)C(C(=O)Nc1cc(OC)c(OC)c(OC)c1)C(c1cccnc1)N(C)C2=O (configuration not stated),10%,4.0,/,1,-8%,-1,5%
O=C(COC(=O)CCc1ccccc1)NC1CCS(=O)(=O)C1 (configuration not stated),0%,/,-0.9%,23,28%[15.4 µM],-13,/
Cc1nc(=O)cc(-c2ccccc2)n1-c1ccccc1,-3%,3.0,0.3%,15,-10%,0,21%
Cc1sc2ncnc(OCC(=O)N3CCN(S(=O)(=O)c4ccc(Cl)cc4)CC3)c2c1C,3%,3.2,1.1%,6,0%,13,2%
COc1ccc(CN2C(=O)C(CC(=O)NCCCN(C)C)CC(C(=O)N(C(C)C)C(C)C)=C2C)cc1 (configuration not stated),/,/,1.5%,/,-19%,-5,/
CCCCCOc1ccc(CSCCNC(=S)Nc2ccccc2)cc1,6%,-0.1,1.0%,-8,-3%[15.4 µM],1,24%
Cc1cccnc1NC(=O)c1ccc(Br)o1,23%,/,-1.6%,-14,-35%[inhibitor],-7,/
O=C(/C=C/c1ccco1)NC(=S)Nc1ccc(N2CCCC2)cc1,-8%,3.6,3.8%,1,15%,22,-29%
COc1ccc(C(=O)OCC(=O)N2CCCC2=O)c(OC)c1,-4%,-8.6,-2.4%,-10,-1%[15.4 µM],8,7%
CC1CCCCN1S(=O)(=O)c1ccc(S(=O)(=O)N2CCN(c3ccc(F)cc3)CC2)cc1 (configuration not stated),-3%,-0.5,0.2%,21,3%,33,-5%
COc1ccc(CC(=O)N/N=C/c2ccc(C)s2)cc1,-36%,/,0.6%,/,-10%[15.4 µM],6,/
COCCCN(C(=O)CC1OC(=O)c2ccccc21)c1c(N)n(Cc2ccccc2)c(=O)[nH]c1=O (configuration not stated),12%,-1.3,-5.4%,1,6%,-22,2%
O=C(Oc1cccc(/C=N/NC(=O)c2ccccn2)c1)c1ccc([N+](=O)[O-])cc1,1%,/,6.5%,23,1%[15.4 µM],11,6%
CCN(CC)P1(=O)OC(c2cc(OC)c(OC)c(OC)c2)=Nc2c1c(C)nn2-c1ccccc1 (configuration not stated),8%,0.2,-1.3%,3,-40%[inhibitor],-10,7%
O=C(COC(=O)CCC(=O)c1cccs1)NCc1cccs1,-2%,-0.4,/,12,4%[15.4 µM],-5,17%
COc1ccccc1-c1c(C)nn2c(N)c(-c3ccc(Cl)cc3)cnc12,-18%,-7.8,1.4%,-2,4%[15.4 µM],0,18%
C=CCn1c(SCC(=O)N2CCc3ccccc3C2)nc2sc(CC)cc2c1=O,-6%,2.7,20µM*,5,1%[15.4 µM],13,-2%
CC(Sc1nnnn1C)C(=O)Nc1ccc(Oc2ccccc2)cc1 (configuration not stated),-12%,-3.5,-3.1%,15,-13%,7,-3%
CNc1nc2cccnc2s1,4%,-0.9,-2.8%,24,29%,20,13%
CC1CC2(C)CC(C)C1(COC(=O)Nc1ccccc1)CO2 (configuration not stated),/,-0.5,/,-3,10%[15.4 µM],27,18%
Cc1ccc(C(=O)N2CCN(c3ccc(NC(=O)c4ccc5c(c4)OCCO5)cc3)CC2)cc1,?,/,0.2%,12,?,-5,2%
O=c1c2sccc2[nH]c(=S)n1-c1ccccc1,-12%,3.5,/,-1,17%[15.4 µM],30,79µM*
CCCCCCCC(=O)NN=C1CCN(Cc2ccccc2)CC1,18%,5.4,0.2%,-26,-21%[15.4 µM],-4,-12%
CCOC(=O)c1c(-c2cccs2)csc1NC(=O)CSc1ncn[nH]1,-13%,2.1,-0.2%,-12,4%,5,-34%
CN(Cc1ccccc1O)CC1CCCN(CCc2ccc(Cl)cc2)C1 (configuration not stated),7%,-4.5,-1.0%,-7,5%,4,-2%
CC1(C)c2[nH]c3ccccc3c2C[C@H]2C(=O)N(CCCCCO)CC(=O)N21,-12%,-2.5,-3.9%,10,-75%[inhibitor],-12,0%
COc1ccc(S(=O)(=O)N2CCOCC2)cc1NC(=O)Cc1ccc(Cl)c(Cl)c1,17%,2.6,-23%,?,-3%,14,-16%
O=C(N[C@H]1CCC(=O)N(CCSc2ccc(Br)cc2)CC1)OCc1ccccc1,-16%,/,1.1%&-0.3%,-8,/,8,/
O=C(NC1CSC/C1=N\O)c1ccccc1 (configuration not stated),6%,1.1,0.4%,-22,1%,4,-10%
COc1ccc(C)cc1S(=O)(=O)N(CC(=O)N1CCCC1)c1ccccc1,-8%,0.6,0.8%,12,-8%,0,13%
O=C(O)Cc1ccc(NS(=O)(=O)c2ccc3ccccc3c2)cc1,7%,0.2,-0.3%,3,0%,34,13%
COc1ccc(C(=O)O)c(OC)n1,6%,0.9,-2.8%,1,21%,/,-3%
Cc1cccc(C)c1NC(=O)NC1(C(=O)NCCCN2CCOCC2)CCCCC1,7%,-0.8,-17%,-2,7%,-11,17%
CCOc1ccccc1N(CC(=O)Nc1ccccc1)S(=O)(=O)c1ccccc1,?,0.0,0.2%,4,-8%,1,2%
CN(CCO)Cc1csc2ccc(Br)cc12,9%,1.0,-11%,?,-29%,31,8%
COc1ccc(OC)c(/C=N/n2c(COc3ccccc3)n[nH]c2=S)c1,-12%,-7.1,8.0%,-2,?,-2,0%
Cc1ccc(-c2ccc(CCC(=O)O)n2NC(N)=S)cc1,5%,4.4,-9.4%,-9,8%,2,?
CC1CCCC(NC(=O)C2N(CCCN3CCCC3)C(=O)C3C(C(=O)Nc4cccc(Cl)c4)C4C=CC32O4)C1C (configuration not stated),11%,-3.9,/,8,2%,30,15%
CCOC(=O)c1[nH]c2c(c1-c1ccccc1)C(=O)CC(c1ccc(OCC)cc1)C2 (configuration not stated),-7%,2.7,-20%,9,-46%[inhibitor],16,3%
CCCOc1ccc(/C(O)=C2\C(=O)C(=O)N(CCCOC)C23C(=O)N(C)c2ccccc23)cc1 (configuration not stated),13%,8.5,-1.2%,-9,7%,-10,2%
Cc1ccc(NC(=O)CCC(=O)NNS(=O)(=O)c2ccccc2)cc1C,-21%,/,-0.5%,24,?,25,2%
Cc1cc(N2Cc3ccccc3C2)ccc1C=O,-12%,6.2,1.2%,?,-25%,7,16%
COc1ccc(C(c2nnnn2Cc2ccccc2)N2CCN(c3nc4ccccc4s3)CC2)cc1OC (configuration not stated),6%,0.1,-3.7%,1,5%,3,?
COc1ccccc1-n1cnc2c(c1=O)c1nc3ccccc3nc1n2-c1ccc(C)cc1,?,7.6,-19%,-23,13%,9,?
CC(CC(=O)Nc1cccc(Cl)c1)c1ccccc1 (configuration not stated),-3%,6.7,14µM*,-12,2%,-7,1%
CC(=O)OC(C(=O)NC1CCCCC1)c1ccc(C)cc1 (configuration not stated),0%,-0.3,-1.8%,0,1%,-15,8%
Cc1c(Cl)cccc1-c1ccc(C(=O)N2CCN(c3ccc([N+](=O)[O-])cc3)CC2)o1,-5%,5.6,1.0%,-1,23%,9,1%

2 entries drawn at random from the list so far, as already listed:
smiles,gsp antag,Menin MLL FP FL,ClpP mod,TRPV1 potentiator,gsp ag,TRPML1 blocker,Sfp inh
CNc1nc2cccnc2s1,4%,-0.9,-2.8%,24,29%,20,13%
COc1ccccc1-n1cnc2c(c1=O)c1nc3ccccc3nc1n2-c1ccc(C)cc1,?,7.6,-19%,-23,13%,9,?

Additional compounds.
smiles,gsp antag,Menin MLL FP FL,ClpP mod,TRPV1 potentiator,gsp ag,TRPML1 blocker,Sfp inh
CC(=O)Nc1ccc(S(=O)(=O)NC2(C(F)(F)F)NC(=O)N(C3CCCCC3)C2=O)cc1 (configuration not stated),4%,-0.2,-2.5%,-5,-1%,2,0%
CC(=O)c1c(O)cc(=O)n(-c2ccccc2)c1-c1cccc2ccccc12,0%,1.7,-13%,/,-17%,-7,8%
Cc1cc(C(=O)OCC(=O)NCCc2ccccc2)c(C)o1,0%,5.7,-1.6%,20,2%,23,2%
C=CCn1c(C)cc(C(=O)COC(=O)C2CC(=O)N(CCc3ccc(OC)c(OC)c3)C2)c1C (configuration not stated),3%,/,0.6%,-9,2%,-1,/
O=C(c1cc(-c2ccc3c(c2)OCO3)on1)N1CCOCC1,1%,1.8,-2.1%,-7,-20%,4,12%
OCc1cc([C@@H](O)CNCCCCCCOCCCCc2ccccc2)ccc1O,/,?,1.9%,/,/,/,-7%
O=C(O)c1oc2ccc(Br)cc2c1-n1cccc1,?,-2.4,0.4%,16,?,12,-5%

Screening results from PubChem.
